VDR inh = vitamin D3 receptor (human) inhibition. P11473. VDR-SRC2-3 peptide fluorescence polarization, 2 h. Potency, µM, inactives show max response, negative = inhibition, actives largely listed as inhibitors. actives 0.93% (n = 400,000). AID 504847; active = well fitted inhibition curve with a large enough effect; inconclusive = small, poorly fitted or top-dose-only effect, or another doubt; inactive = no such curve, though single readings can be large or run the other way; note: series mostly up to about 120 µM
Target sequence (P11473 whole entry, looked up): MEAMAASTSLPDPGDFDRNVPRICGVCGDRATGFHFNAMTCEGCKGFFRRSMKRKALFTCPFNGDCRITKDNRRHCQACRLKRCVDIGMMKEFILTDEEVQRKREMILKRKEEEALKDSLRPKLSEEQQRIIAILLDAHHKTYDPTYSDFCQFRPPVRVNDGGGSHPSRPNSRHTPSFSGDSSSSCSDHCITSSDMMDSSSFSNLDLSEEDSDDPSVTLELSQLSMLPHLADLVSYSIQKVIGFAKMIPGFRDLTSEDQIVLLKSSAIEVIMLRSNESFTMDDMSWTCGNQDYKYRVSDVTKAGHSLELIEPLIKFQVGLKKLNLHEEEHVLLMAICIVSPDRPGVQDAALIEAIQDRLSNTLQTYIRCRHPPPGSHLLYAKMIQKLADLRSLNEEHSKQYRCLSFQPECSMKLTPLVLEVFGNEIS
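The screen uses fluorescence polarization to detect compounds that interfere with recruitment of the SRC2-3 coactivator peptide to VDR; plates are read after 2 h at room temperature.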
* marks the source's active call; other numbers are inactive results; ? = inconclusive; & = joins results of further samples. % is set by controls: 0 for no effect and ±100 for the full control effect; potency is the fitted concentration of half-maximal effect.

VDR inh | smiles
-9.8% | CCOC(=O)C1CCN(C(=O)c2ccc(CNS(=O)(=O)c3ccc(C)cc3)cc2)CC1
18.0% | O=c1[nH]c(=S)[nH]cc1Oc1ccc(Br)cc1Br
-6.5% | CCc1ccccc1NC(=O)Nc1cccn(Cc2ccc(F)cc2)c1=O
-17.1% | CC(C)CN1CCN(Cc2cccc3ncccc23)CC1CCO (configuration not stated)
7.8% | COc1ccc(/C=N/NC(=O)c2ccc(COCC(F)(F)C(F)F)cc2)cc1
-1.9% | O=C(c1ccco1)N(CCCN1CCOCC1)c1nc(-c2ccc(F)cc2)cs1
1.0% | O=C(c1ccc(=O)[nH]n1)N1CCN(S(=O)(=O)c2cccc(F)c2)CC1
-15.9% | O=S(=O)(c1ccccc1)c1nc(-c2cccc(Cl)c2)oc1NCc1ccccc1
15.4% | COC(=O)C(NC(=O)c1ccccc1)=C1C=C(C)OC(C)=C1
3.7% | COc1ccc(Cl)cc1NC(=O)COc1cccc2c(=O)n(C)ccc12
-9.2% | COc1ccc(-c2cc(C(=O)NC(C)C)no2)cc1
13.3% | CCOc1ccc(OCc2ccc(C(=O)Nc3cccnc3)cc2)cc1
-7.1% | Fc1ccc(NC(=S)NNc2ncc(C(F)(F)F)cc2Cl)c(F)c1
-5.1% | COc1ccccc1-n1cnc(N)c1C(=O)c1ccccc1
8.8% | CC(=O)c1ccc(NC(=O)c2nc(-c3ccccc3)n(-c3ccc(C)cc3)n2)cc1
3.3% | CCOc1cc(CNCCc2c[nH]c3ccccc23)cc(Cl)c1OCC(N)=O
1.0% | Cc1cc(NN)nc(NS(=O)(=O)c2ccccc2)n1
2.9% | CCOC(=O)c1cc(C#N)c(NCc2ccccc2)nc1C
17.3% | CCc1ccc(N(C)S(=O)(=O)c2ccc3[nH]cc(C(=O)NCCN4CCOCC4)c(=O)c3c2)cc1
7.0% | COc1cccc(CNC(=O)CCCNC(=O)c2ccc(Cl)cc2)c1
0.5% | O=C(Nc1cccc([N+](=O)[O-])c1)NC1CCCCCCC1
-6.4% | O=C(Nc1ccc2ccccc2c1)c1cnccn1
12.4% | NC(=O)c1nc(N2CCOCC2)nc(N2CCOCC2)n1
23.4% | CCOc1cc(N2CCOCC2)c(OCC)cc1NC(=O)C(C)(C)C
-13.8% | O=C(O)CSc1cc(C(=O)c2cc(F)ccc2O)cn2c(=O)c3c(-c4ccccc4)csc3nc12
-7.7% | COc1ccc2cc3cc(C(=O)NCCCN4CCOCC4)oc3nc2c1
-12.4% | COc1ccc(CCNC(=O)CCC(=O)n2ncc3cc(C)ccc32)cc1OC
-9.0% | Nc1c(C(O)(C(F)(F)F)C(F)(F)F)cc(C(O)(C(F)(F)F)C(F)(F)F)c2ccccc12
-1.0% | CCOC(=O)c1[nH]c(C)c(C(=O)NCc2ccc(Cl)cc2)c1C
-9.2% | CC(C)(C)OC(=O)N1CCC(c2c(C(=O)N3CCN(C4CCCCC4)CC3)cnn2-c2ccccc2)CC1
0.3% | Clc1ccc(-c2nnsc2SCc2ccccc2)cc1
-2.5% | CC(=O)Oc1cc(OC(C)=O)c2c(=O)c(-c3ccc4c(c3)OCCCO4)c(C)oc2c1
-4.0% | COc1ccc(NC(=O)CC23CC4CC(CC(Br)(C4)C2)C3)c(OC)c1
-0.3%&-20.9% | O=C(CC1Nc2cccc3cccc(c23)NC1=O)Nc1ccc(F)cc1 (configuration not stated)
? | Cc1ccc2c(c1)c1c3n2CCN(C(=O)CCl)C3CCC1 (configuration not stated)
11.7% | CC(=O)c1ccc(-n2ccnc2)cc1
6.2% | CSc1ncccc1C(=O)Nc1nc2ccc(S(C)(=O)=O)cc2s1
-21.3% | Nc1nonc1-n1nnc(C(=O)N/N=C/c2ccc(OCc3ccccc3F)cc2)c1CN1CCCCC1
8.3% | Cc1cn(C)c(CC(=O)N2CCN(c3cccc(C(F)(F)F)c3)CC2)c1C(=O)O
-3.7% | Cc1ccc2c(=O)c(C(=O)c3cccc(Cl)c3)cn(CC(=O)Nc3ccccc3C(F)(F)F)c2n1

Next section, starting with the last 6 of the part before.
VDR inh | smiles
? | Cc1ccc2c(c1)c1c3n2CCN(C(=O)CCl)C3CCC1 (configuration not stated)
11.7% | CC(=O)c1ccc(-n2ccnc2)cc1
6.2% | CSc1ncccc1C(=O)Nc1nc2ccc(S(C)(=O)=O)cc2s1
-21.3% | Nc1nonc1-n1nnc(C(=O)N/N=C/c2ccc(OCc3ccccc3F)cc2)c1CN1CCCCC1
8.3% | Cc1cn(C)c(CC(=O)N2CCN(c3cccc(C(F)(F)F)c3)CC2)c1C(=O)O
-3.7% | Cc1ccc2c(=O)c(C(=O)c3cccc(Cl)c3)cn(CC(=O)Nc3ccccc3C(F)(F)F)c2n1
-4.5% | COc1ccccc1-c1nnc(SCC(=O)Nc2ccc(N3CCOCC3)cc2)n1C
-11.2% | COc1ccc(NC(=O)NC(c2ccccc2)c2ccccc2)c(OC)c1
13.1% | Cc1ncc(S(=O)(=O)c2ccccc2)c(-c2ccccc2)n1
-12.7% | Cc1oc(-c2ccc(Cl)cc2)nc1CN1CCCC(C(=O)NCCc2ccccc2)C1 (configuration not stated)
-17.3% | Cc1ccc(NC(=O)c2cc(S(=O)(=O)N3CCCCC3)ccc2N2CCOCC2)cc1F
20.8% | Cc1cccc(NS(=O)(=O)c2ccc(C)c(NS(=O)(=O)c3cccs3)c2)c1
16.1% | CCN1C(=O)c2cccc3c(NC(=O)c4ccc(S(=O)(=O)N(C)C)cc4)ccc1c23
-20.6% | CCOc1ccc2nc(N(CCN(C)C)C(=O)/C=C/c3cccs3)sc2c1
2.1% | Cc1ccc(-c2cc(C(F)(F)F)n3nc(C(=O)Nc4ccc(Cl)cc4Cl)cc3n2)cc1
3.3% | O=C(Nc1nnc(C2CC2)s1)C1CCCCN1S(=O)(=O)c1ccccc1 (configuration not stated)
-8.8% | C#CCOCCOCCOCCNc1nc(N2CCN(C(=O)C([C@@H](C)CC)n3cc(C(N)COC(=O)C(F)(F)F)nn3)CC2)nc(N2CCN(C(=O)[C@H](CCCCN)n3cc(C(N)[C@H](C)CC)nn3)CC2)n1 (some centres not stated)
11.1% | Cc1nc2ccccn2c1/C(O)=C1\C(=O)C(=O)N(CCN(C)C)C1c1cccnc1 (configuration not stated)
-20.2% | Cc1csc(NC(=O)c2cc3c(C)nn(Cc4ccccc4Cl)c3s2)n1
-7.2% | CCCCN(CCCC)Cc1ccc(C(=O)NNC(=O)Nc2ccc(Cl)cc2)o1
-7.5% | C=CCn1c(NCc2c[nH]c3ccccc23)nc2ccccc21
6.4% | CC(=O)Nc1c(C)nn(-c2ccccc2)c1N1CCC(C(=O)Nc2ccc(C)cc2Cl)CC1
0.6% | CCN(CC)S(=O)(=O)c1nnc(NC(=O)COc2cccc(C)c2)s1
-20.3% | COc1ccccc1C(=O)Oc1cc(N)n(S(=O)(=O)c2ccccc2)n1
-14.1% | CCOc1ccc(CN(C(=O)c2oc3cc(C)ccc3c2C)C2CCS(=O)(=O)C2)cc1 (configuration not stated)
1.6% | COc1ccccc1C1=NC(c2ccc(F)cc2)N=C1C (configuration not stated)

As entered above:
C#CCOCCOCCOCCNc1nc(N2CCN(C(=O)C([C@@H](C)CC)n3cc(C(N)COC(=O)C(F)(F)F)nn3)CC2)nc(N2CCN(C(=O)[C@H](CCCCN)n3cc(C(N)[C@H](C)CC)nn3)CC2)n1 (some centres not stated) in VDR inh is entered as -8.8%
Cc1ncc(S(=O)(=O)c2ccccc2)c(-c2ccccc2)n1 in VDR inh is entered as 13.1%

(listing goes on)
VDR inh | smiles
-0.7% | CN1CCN(c2nc3c(c(=O)[nH]c(=O)n3C)n2Cc2ccccc2)CC1
-8.1% | CCOC(=O)/C(N=O)=C(\O)C1CCN(C(=O)OCC)CC1
-14.3% | CC#CCN1c2ccccc2[C@]23C[C@@H](C(=O)OC)N(C(=O)c4ccco4)C2=NC(C(=O)OC)=C(C(=O)OC)[C@H]13
-18.5% | O=C(Nc1ccc2oc(-c3cccnc3)nc2c1)c1ccc(-c2ccccc2OC(F)(F)F)o1
-11.1% | OC(CN1CCN(C(c2ccccc2)c2ccccc2)CC1)c1ccc(Br)cc1 (configuration not stated)
-1.5% | CC(C(=O)NC(=O)NCc1ccccc1)N1C(=O)c2ccccc2C1=O (configuration not stated)
12.5% | CCS(=O)(=O)C(=C1NCCO1)S(=O)(=O)CC
3.0% | CN(C(=O)Cn1nnc(-c2ccccc2)n1)C1CCS(=O)(=O)C1 (configuration not stated)
-0.3% | C=CCOn1c(C)c(C(C)=O)c2c3nonc3ccc21
-7.8% | C=CCn1c(=S)[nH]c2scc(-c3ccc(C)o3)c2c1=O
-3.5% | COc1ccc(NC(=O)c2ccc(NC3CC(=O)N(c4ccc(C)cc4C)C3=O)cc2)cc1 (configuration not stated)
6.2% | CN(C(=O)CSc1nc2ccc(NC(=O)COc3ccccc3Cl)cc2s1)c1ccccc1
? | Cc1ccc(CN(C(=O)COc2ccc(Br)cc2)C2CCS(=O)(=O)C2)o1 (configuration not stated)
-9.7% | CN1CC(=O)N(C)c2ncn(Cc3ccccc3)c2C1=O
? | COc1ccc(S(=O)(=O)Nc2cccc3c2O[C@H](CN(C)C(=O)NC2CCCCC2)[C@@H](C)CN([C@H](C)CO)C3=O)cc1
-7.3% | O=C(Cc1ccc(F)cc1)N(c1ccccc1)C1C=CS(=O)(=O)C1 (configuration not stated)
-10.0% | O=C(COc1ccccc1)Nc1ccc(S(=O)(=O)N2CCOCC2)cc1
-5.2% | COc1cc(C(=O)NCCc2ccc3c(c2)OCCO3)ccc1OCC(=O)N1CCOCC1
-3.9% | Cc1ccc(C(=O)Nc2cccc(S(=O)(=O)N3CCCCC3)c2)cc1[N+](=O)[O-]
8.3% | Cn1cc(S(=O)(=O)Cc2ccc(F)cc2)c2ccccc21
1.1% | COc1ccc(/C=C/c2nc(C#N)c(NCc3ccc(C)cc3)o2)cc1OC
2.2% | COc1ccc(CCNC(=O)CSc2nnc3ccc(-c4ccncc4)nn23)cc1
16.9% | O=Cc1cn(-c2ccccc2)nc1-c1cc2c(ccc3ccccc32)oc1=O
-6.4% | CCC(C)n1c(-c2cccs2)nc2nc3ccccc3nc21 (configuration not stated)
5.6% | Cc1cc(/C=C2\C(=N)N3N=C(c4ccco4)SC3=NC2=O)c(C)n1Cc1ccccc1
7.8% | O=C(Cn1cnc2c(cnn2-c2ccc(F)cc2)c1=O)NCCc1ccccc1
8.91µM* | Cc1cccc(CS(=O)(=O)c2ncc(Cl)c(C(=O)Nc3nnc(C(C)C)s3)n2)c1
-1.6% | O=C(Cn1ncc2c1-c1ccccc1OC2)Nc1ccc(S(=O)(=O)N2CCCCC2)cc1
7.0% | O=C1CC(c2ccco2)Cc2nc(N3CCN(Cc4ccc5c(c4)OCO5)CC3)ncc21 (configuration not stated)
6.3% | Cc1ccnc(NC(=O)c2ccccc2[N+](=O)[O-])c1
8.6% | O=C(CCC(=O)c1ccc(Cl)cc1)OCC(=O)c1ccccc1
3.7% | Cc1cn2c(=O)c(S(=O)(=O)NC(C)c3ccccc3)c(C)nc2s1 (configuration not stated)
-2.3% | O=C(CSc1nc(-c2ccco2)cc(C(F)(F)F)n1)Nc1ccc(C(=O)N2CCOCC2)cc1
-17.8% | CSc1nsc(SCc2ccc(Cl)cc2)n1
-15.9% | C=CCN(c1ccccc1OC)S(=O)(=O)c1cccc(C(=O)OCC(=O)c2c(N)n(C)c(=O)n(C)c2=O)c1
-11.1% | O=C(NC(=S)Nc1ccccc1O)c1cccnc1
9.0% | O=C(COC(=O)c1ccccc1SCC(=O)NC1CCS(=O)(=O)C1)NC1CCS(=O)(=O)C1 (configuration not stated)
-2.3% | CC(C)(CO)NC(=O)Nc1ccc(Cl)c(Cl)c1
7.7% | COc1ccc(C(=O)NC(=O)CSc2n[nH]c(N)n2)cc1
-7.9% | Cc1cc(OCc2ccc(C(=O)n3cccn3)o2)ccc1Cl
-9.8% | COc1cccc(CN2C(=O)Nc3ccccc3C(=O)N2C(C)(C)C)c1
-17.0% | N#Cc1ccc(OCC(=O)n2cc(C(=O)c3cc(Cl)cc(Cl)c3O)cn2)cc1
-14.3% | COC(=O)C1(CC2CC(c3cccc(Br)c3)=NO2)CCN(C(=O)OC(C)(C)C)CC1 (configuration not stated)
-4.5% | CC(=O)c1cc(NC(=O)c2ccccc2)c(=O)oc1C
-10.3% | CCS(=O)(=O)c1nc2ccccc2n1CC(=O)N1CCOCC1
-19.1% | Nc1[nH]c(N=NC(=O)c2ccc(Cl)cc2)c2ccccc12
-13.9% | C/C(=N\Nc1ccc(C(=O)O)cc1)c1ccc2c(c1)Nc1ccccc1S2
-7.6% | COCCNC(=S)N(CCc1c(C)[nH]c2ccc(OC)cc12)Cc1ccco1
-6.3% | COc1ccc(Cl)cc1NC(=O)C1CCCO1 (configuration not stated)
1.3% | Cn1cc(Br)c(C(=O)N2CCN(c3cccc(Cl)c3)CC2)n1
5.5% | Cc1ccc(C(=O)N(Cc2ccc(N(C)C)cc2)CC2CCCO2)cc1 (configuration not stated)
3.3% | Cc1ccc(NC(=O)C2CCCN(C(=O)c3cnn(-c4ccc(F)cc4)c3-n3cccc3)C2)c(Cl)c1 (configuration not stated)
-11.3% | Cc1ccc(-c2cccc(C(=O)NCc3ccccc3)n2)c2ccccc12
-5.4% | COC(=O)c1cc(=O)n(CCc2ccccc2F)c(=Nc2ccc(F)c(Cl)c2)s1
-5.5% | CC(=O)N1CCc2c(sc(NC(=O)C3CCCCC3)c2C(N)=O)C1
-16.4% | CCn1c(=O)c2sccc2n2c(CCC(=O)Nc3ccc(OC)cc3OC)nnc12

Reformatted as a markdown table: four of the compounds above
| Structure | VDR inh |
| --- | --- |
| COCCNC(=S)N(CCc1c(C)[nH]c2ccc(OC)cc12)Cc1ccco1 | -7.6% |
| COc1ccc(Cl)cc1NC(=O)C1CCCO1 (configuration not stated) | -6.3% |
| Cn1cc(Br)c(C(=O)N2CCN(c3cccc(Cl)c3)CC2)n1 | 1.3% |
| Cc1ccc(C(=O)N(Cc2ccc(N(C)C)cc2)CC2CCCO2)cc1 (configuration not stated) | 5.5% |

Some of the compounds tested; the hit share may differ from the screen's.
